Screens deposited in PubChem BioAssay by National Center for Advancing Translational Sciences (NCATS).
TRPML1 blocker: qHTS for Inhibitors of the Human Mucolipin Transient Receptor Potential 1 (TRPML1) | 390,000 tested, 0.02% active | AID 624415, 2012 | TRPML1-inducible cells, Ca2+ dye fluorescence, FDSS; active compounds read low; inhibition of EC80 agonist-evoked calcium signal | activity change, negative = inhibition, % (no concentration beside the values); in the data active means activity change below about -50%; inconclusive means about -30% to -50%; inactive means above about -30%;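 also: stimulus is agonist 54-4 at its EC80 concentration; % is scaled to controls: 0 for no effect and ±100 for the full control effect; compound concentration not given in the record; the text of the record puts the active cut at -80%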
Target sequence (Q9GZU1 whole entry, looked up): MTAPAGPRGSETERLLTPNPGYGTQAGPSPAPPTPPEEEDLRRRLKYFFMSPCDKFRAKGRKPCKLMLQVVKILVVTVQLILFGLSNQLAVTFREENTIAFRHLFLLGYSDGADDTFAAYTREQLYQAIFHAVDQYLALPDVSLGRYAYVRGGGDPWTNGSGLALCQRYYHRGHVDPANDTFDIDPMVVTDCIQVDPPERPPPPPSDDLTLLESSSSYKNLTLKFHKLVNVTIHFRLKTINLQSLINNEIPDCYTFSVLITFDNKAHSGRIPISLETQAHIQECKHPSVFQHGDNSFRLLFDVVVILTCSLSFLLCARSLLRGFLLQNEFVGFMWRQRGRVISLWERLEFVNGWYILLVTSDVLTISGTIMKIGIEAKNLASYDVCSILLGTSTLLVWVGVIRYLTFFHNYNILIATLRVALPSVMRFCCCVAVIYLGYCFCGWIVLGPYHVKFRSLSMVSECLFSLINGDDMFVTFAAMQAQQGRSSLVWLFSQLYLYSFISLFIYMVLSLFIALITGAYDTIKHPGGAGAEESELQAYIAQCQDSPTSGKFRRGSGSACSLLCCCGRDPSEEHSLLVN
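Tet-induced TRPML1-DL cells loaded with Ca8 no-wash calcium dye were read kinetically on FDSS. Compound addition was followed by EC80 agonist 54-4 (4 uM final); inhibition was read over 110 s.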
D2 agonist: Beta-Arrestin HTS for Positive Allosteric Modulators of the Human D2 Dopamine Receptor: Agonists. D(2) dopamine receptor (Homo sapiens), P14416. DiscoveRx PathHunter D2 beta-arrestin, luminescence, 90 min; 100% = 57 uM dopamine signal. activation, % (concentration not given with the values). 360,000 tested, 0.084% active; in the data active = activation above about 40%; inconclusive = about 15% to 40%; inactive = below about 15%; also: compound concentration not given in the record; the text of the record calls up to 30% inactive
Target sequence (P14416 whole entry, looked up): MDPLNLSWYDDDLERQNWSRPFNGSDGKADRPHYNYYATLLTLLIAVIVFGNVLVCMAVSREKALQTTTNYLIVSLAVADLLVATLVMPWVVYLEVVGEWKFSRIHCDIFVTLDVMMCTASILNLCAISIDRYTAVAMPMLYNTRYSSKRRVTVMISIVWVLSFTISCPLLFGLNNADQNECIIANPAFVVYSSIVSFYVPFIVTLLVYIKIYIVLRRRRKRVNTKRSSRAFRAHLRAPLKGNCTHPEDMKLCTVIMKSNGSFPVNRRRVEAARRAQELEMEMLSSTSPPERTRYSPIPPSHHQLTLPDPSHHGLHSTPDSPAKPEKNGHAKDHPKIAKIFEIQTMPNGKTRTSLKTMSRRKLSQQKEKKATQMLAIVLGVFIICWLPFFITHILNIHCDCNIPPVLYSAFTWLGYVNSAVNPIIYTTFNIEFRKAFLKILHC
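Agonist mode: compounds alone added to overnight-plated D2 PathHunter cells for 90 min at 37 C, with 57 uM final dopamine (EC100) defining full response. Beta-arrestin recruitment detected by chemiluminescent reagent, read after 1 h at ambient temperature.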
Six1-Eya2 blk: qHTS Assay for Inhibitors of the Six1/Eya2 Interaction. AlphaScreen GST-Six1/His-Eya2 binding, biochemical; active compounds read low; control for the full effect not named in the record. activity change, % (no concentration beside the values). AID 651725, 2012. 360,000 tested, 0.56% active; in the data active = activity change below about -65%; inconclusive = about -30% to -65%; inactive = above about -30%; also: % is scaled to controls: 0 for no effect and ±100 for the full control effect
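AlphaScreen luminescence read after one hour at 37 °C in darkness. Pin-transferred compounds met GST-Six1 and His-Eya2 protein (5X stock 250 nM/500 nM) plus glutathione donor and Ni-chelate acceptor beads (5X, 50 ug/mL).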
TRPML1 ag: qHTS for Agonists of the Human Mucolipin Transient Receptor Potential 1 (TRPML1); Mucolipin-1 (Homo sapiens), Q9GZU1; TRPML1-expressing cells, Ca2+ dye fluorescence, FDSS; host cell line not named in the record; reference of the full effect not given here; activation, % (concentration not given with the values); 410,000 tested, 0.12% active; AID 624414, 2012; in the data active = activation above about 50%; inconclusive = about 30% to 50%; inactive = below about 30%; also: 0% is about no effect; the text of the record puts the active cut at 80%
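Tetracycline-induced TRPML1-DL cells are seeded and incubated overnight before loading with a no-wash Ca2+ dye and quencher. Agonist activity is taken from the 110 s fluorescence read following compound pin-transfer on an FDSS, before EC80 54-4 challenge.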
PINK1 modulator: A Quantitative High throughput Screen to Identify Chemical Modulators of PINK1 Expression; 410,000 tested, 0.2% active; Potency, µM (titrated, usually from 76.6 µM), inactives show at the top dose activation (PINK1 increase), usual class: activators; PINK1 immunofluorescence, high-content cytometry, 24 h; active = well fitted activation curve with a large enough effect; inconclusive = small, poorly fitted or top-dose-only effect; inactive = flat fitted curve, though single readings scatter; cell line not stated here;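 also: potency is read from the fitted curve at half-maximal effect; % of control where 0% means no effect; nearly all actives have a fitted effect of over 65% in size; a mitochondrial uncoupler was the plate control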
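Compound titrations (5 concentrations, 24 h) on a stable cell line; DMSO and CCCP controls. Endpoint: fixed-cell PINK1 immunofluorescence with mitochondrial, cell and nuclear markers, scanned by microplate cytometer.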
CtBP-E1A blk: qHTS Assay for Inhibitors of the CtBP/E1A Interaction | AlphaScreen GST-E1A/His-CtBP binding, 1536-well; active compounds read low; control for the full effect not named in the record | AID 651724, 2012 | 340,000 tested, 0.49% active | activity change, % (no concentration beside the values); in the data active means activity change below about -65%; inconclusive means about -30% to -65%; inactive means above about -30%; also: % is scaled to controls: 0 for no effect and ±100 for the full control effect
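In 5 uL wells, 23 nL compound meets equimolar GST-E1A and His-CtBP (5X stock 125 nM each) for 2 h, 37 °C. Beads (5X, 50 ug/mL) then 1 h, 37 °C, dark.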
An asterisk follows results filed as active; ? = inconclusive; . = no result given; [ ] = remark or other dose.

structure	TRPML1 blocker	D2 agonist	Six1-Eya2 blk	TRPML1 ag	PINK1 modulator	CtBP-E1A blk
Cc1ccc(S(=O)(=O)NCC(=O)OCCOc2ccccc2F)cc1	-8	6.2	5	1.6	1.3%	.
Cc1ccc(OCCn2cc(C(=O)c3ccco3)c3ccccc32)cc1C	48	.	.	7.4	0.6%	.
O=C1CC(=C2c3ccccc3-c3ccccc32)C(=O)N1CCN1CCN(c2ccccc2)CC1	0	-1.9	?	-0.7	1.5%[38.3 µM]	?
CCOc1ccccc1NC(=O)c1cnccn1	-9	-4.8	5	1.5	1.0%	2
CCOC(=O)c1c(C)[nH]c(C(=O)OCC(=O)NCc2ccc(C)cc2)c1C	-9	-1.5	4	0.2	-1.5%	.
c1ccc(C2=Nn3c(nnc3-c3cc(-c4ccccc4)n[nH]3)SC2)cc1	-10	-3.4	-22	1.6	3.3%	-7
COc1cc(/C=C2/SC(=S)N(CCC(=O)N3CCN(C)CC3)C2=O)cc(OC)c1OC	23	-1.9	1	0.0	5.8%	-3
O=C(CN1C(=O)c2ccccc2C1=O)N1CCN(c2ccccn2)CC1	3	-2.4	-1	-0.4	?	4
Cc1cc(N(C)/N=C/c2ccccc2)nc(-c2ccccc2O)n1	13	3.5	-1	1.7	0.2%	.
Cc1cc(=O)oc2c(CN(C)Cc3ccccc3)c(O)ccc12	11	-4.5	-3	-0.9	-1.1%	0
Cc1c(NS(=O)(=O)c2cccc3nsnc23)c(=O)n(-c2ccccc2)n1C	-20	-1.5	1	-0.1	-0.7%	-10
CNC[C@H]1Oc2cc(Br)ccc2S(=O)(=O)N([C@H](C)CO)C[C@H]1C	12	-9.0	3	-0.2	-0.1%	-9
O=C(CSc1nnc(-c2ccco2)o1)Nc1ccccc1Cl	-3	-1.9	4	-0.2	0.0%	4
CCOc1cc(-c2noc(CCCC(=O)NC3CCCCC3)n2)ccc1OC	14	4.7	-4	-0.7	0.8%	10
CCCOC(=O)c1c(NC(=O)c2nc3ncccn3n2)sc(C(N)=O)c1C	-1	.	.	-0.3	3.0%	.
CC(C)CN1CCC(C(=O)N2CCN(c3ccccc3F)CC2)CC1	-9	-2.8	2	-0.1	-0.2%	16

A different layout for some results above:
Below each SMILES: TRPML1 blocker | D2 agonist | Six1-Eya2 blk | TRPML1 ag | PINK1 modulator | CtBP-E1A blk
CNC[C@H]1Oc2cc(Br)ccc2S(=O)(=O)N([C@H](C)CO)C[C@H]1C
    12 | -9.0 | 3 | -0.2 | -0.1% | -9
O=C(CSc1nnc(-c2ccco2)o1)Nc1ccccc1Cl
    -3 | -1.9 | 4 | -0.2 | 0.0% | 4
CCOc1cc(-c2noc(CCCC(=O)NC3CCCCC3)n2)ccc1OC
    14 | 4.7 | -4 | -0.7 | 0.8% | 10

More entries
structure	TRPML1 blocker	D2 agonist	Six1-Eya2 blk	TRPML1 ag	PINK1 modulator	CtBP-E1A blk
CCOC(=O)c1cc(=O)n2c(nc3ccccc32)[nH]1	-21	3.9	1	-0.8	-0.3%	-4
CC(C)C(NC(=O)c1ccc([N+](=O)[O-])cc1Cl)C(=O)N1CCCC1 (stereo not drawn)	-8	-4.6	12	0.5	-1.2%	2
COc1ccc(CCC(=O)NNC(=O)c2cccs2)cc1	2	-6.1	0	-0.2	4.0%	0
O=C(c1cccs1)N1CCc2ccccc21	18	-2.1	3	0.1	2.3%[38.3 µM]	22
O=C1CC(c2ccco2)CC2=C1C(c1cccnc1)n1nc(C(F)(F)F)nc1N2 (stereo not drawn)	-3	.	.	2.5	-0.3%	.
CCOC(=O)c1ccccc1NC(=O)c1cccnc1	-9	1.4	3	-0.6	-2.8%[38.3 µM]	5
COc1ccccc1NC(=O)CC(NCCN(C)C)C(=O)O (stereo not drawn)	-8	-0.9	?	-0.2	9.9%[38.3 µM]	?
Cc1ccc(-c2nnc(Nc3ccc(CC(N)=O)cc3)c3ccccc23)cc1	-4	-2.1	-7	1.1	-2.1%[38.3 µM]	-18
COc1cc(C(CC(=O)Nc2ccccn2)N2Cc3ccccc3C2=O)cc(OC)c1OC (stereo not drawn)	13	5.0	-5	-0.5	1.4%	.
Cn1c(SCc2nc(-c3cccs3)no2)nnc1C1CCCCC1	7	-3.3	1	1.9	-1.3%	3
O=C(COC(=O)CSCC(=O)N1CCCCC1)NCc1ccc(F)cc1	4	-0.7	1	1.1	0.1%	5
Cc1nc(SCC(=O)Nc2ccc(Cl)cc2[N+](=O)[O-])nc(C)c1C	6	7.6	-24	4.4	-1.3%	?
C=C(C)c1cccc(C(C)(C)NC(=O)N2CCC(C)CC2)c1	0	-4.3	3	-2.0	3.4%	5
Cc1c(C#N)c(N=CN(C)C)c(C(=O)c2ccccc2)n1-c1ccc(Br)cc1	-8	-2.6	-12	0.7	?	5
CCOC(=O)C1C(=O)CC(C)(O)C(C(=O)OCC)C1c1ccc(SC)cc1 (stereo not drawn)	9	-5.2	0	0.7	0.2%	.
CCCCN1C(=O)C(CC(=O)NC2CC2)CC(C(=O)N2CCOCC2)=C1C (stereo not drawn)	7	-0.9	4	-0.6	1.3%	7
C=CCNC(=O)c1cc(-c2ccc(Br)cc2)on1	-3	0.0	0	-0.3	5.1%[38.3 µM]	6
CCOc1ccc2[nH]c(=O)c(CN(CCO)Cc3nnnn3CCc3ccccc3)cc2c1	-3	-3.7	-1	-0.1	2.5%[38.3 µM]	-2
CC1=C(C(=O)OC(C)C)C(c2ccccc2)NC(=O)N1C (stereo not drawn)	-1	0.9	-5	-0.6	-0.2%	.
CC(C)=CC(=O)O[C@@H]1Cc2c(ccc3ccc(=O)oc23)OC1(C)C	21	0.6	2	2.6	1.0%	-21
CC(NC(=O)CSc1n[nH]c(=O)n1C1CC1)C12CC3CC(CC(C3)C1)C2 (stereo not drawn)	-9	-0.6	2	-0.4	3.6%	3
C#CC(c1ccccc1)(c1ccccc1)n1ccnc1	-2	1.1	-12	-0.4	2.0%	0
O=C(NCc1ccccc1)c1nc(S(=O)(=O)Cc2ccc(F)cc2)ncc1Cl	7	.	.	-0.6	0.4%	.
COc1cc(OC)c(NS(=O)(=O)c2cc(C(=O)NCCCN3CCOCC3)ccc2C)cc1Cl	7	3.1	-3	-0.9	0.9%	-3
CC(=O)NC(Cc1c[nH]c2ccccc12)C(=O)OCC(=O)N1CCN(S(=O)(=O)c2ccc(Cl)cc2)CC1 (stereo not drawn)	-10	-1.7	18	0.2	4.8%	1
CC(=O)Cc1nsc(NC(=O)c2ccc(COc3ccccc3)o2)n1	8	0.3	4	0.3	-1.2%	-2
COc1cc(OC)c(NC(=O)c2c(C)oc3ncnc(N4CCCCC4)c23)cc1Cl	-4	.	.	-0.9	2.9%	.
COc1ccccc1-c1cc(C(=O)N/N=C/c2ccc(C)o2)c2ccccc2n1	-16	-5.5	-20	3.1	4.7%	-22
O=C1[C@@H]2[C@H](C(=O)N1n1cnnc1)[C@H]1C=C[C@@H]2C1	-5	-1.4	3	-0.4	1.5%	5
O=C(NCC1CCCN(Cc2ccccc2F)C1)c1cccc(C(F)(F)F)c1 (stereo not drawn)	7	-4.8	4	2.0	-2.0%	1
Cc1cccc(C)c1N1CCN(C(=O)N2CCCCC2)CC1	-7	-2.1	-2	-0.9	-1.2%	3
CC(=O)c1ccc(OC(=O)CCc2ccccc2)cc1	-5	0.3	-79*	0.2	1.0%	?

Of the compounds above, 3 contain two or more sulfur atoms:
structure	TRPML1 blocker	D2 agonist	Six1-Eya2 blk	TRPML1 ag	PINK1 modulator	CtBP-E1A blk
COc1cc(/C=C2/SC(=S)N(CCC(=O)N3CCN(C)CC3)C2=O)cc(OC)c1OC	23	-1.9	1	0.0	5.8%	-3
Cc1c(NS(=O)(=O)c2cccc3nsnc23)c(=O)n(-c2ccccc2)n1C	-20	-1.5	1	-0.1	-0.7%	-10
Cn1c(SCc2nc(-c3cccs3)no2)nnc1C1CCCCC1	7	-3.3	1	1.9	-1.3%	3

Carrying on:
structure	TRPML1 blocker	D2 agonist	Six1-Eya2 blk	TRPML1 ag	PINK1 modulator	CtBP-E1A blk
COc1ccc(CS(=O)(=O)c2nc(C)cc(C)c2S(C)(=O)=O)cc1	-14	-2.2	21	-0.4	0.3%	4
O=C(COc1ccc(Cl)cc1)Nc1nnc(S(=O)(=O)N2CCc3ccccc32)s1	-8	.	.	1.0	-0.4%	.
CCOc1ccc(C(=O)NC2CC(=O)N(c3ccc4c(c3)OCCO4)C2)cc1 (stereo not drawn)	-9	5.8	3	-0.4	2.4%	5
CC(CCc1ccccc1)NC(=O)Cc1ccccc1 (stereo not drawn)	19	-0.1	4	0.5	1.6%	3
CN(C)c1cccc(C(=O)Nc2ccc(N3CCOCC3)cc2)c1	7	-2.4	-9	-0.7	5.5%[38.3 µM]	-3
Cc1ccc(NC(=O)C2Cc3ccccc3CN2C(=O)c2ccccc2)cc1Cl (stereo not drawn)	0	-1.3	1	-0.3	-0.2%	1
CC(C)(C)CC(=O)Nc1cccc(-c2cn3cccnc3n2)c1	-11	-1.0	-1	0.0	1.8%	.
CN(C)S(=O)(=O)N1CCN(c2ccc(Cl)cc2)CC1	6	0.3	7	3.1	-2.0%	-2
CC(=O)Nc1ccc2ccccc2c1	2	-0.7	0	-0.4	-1.2%[38.3 µM]	5
Cc1cc(C)c(NC(=O)CSc2nc3nc(C)cc(C)n3n2)c(C)c1	-18	.	.	1.6	0.7%	.
COc1cccc(CN(C)C(=O)C2CSC3(C)CCC(=O)N23)c1OC (stereo not drawn)	0	-5.9	-1	-0.1	-1.4%	18
CCCCn1nnnc1C(c1ccccc1)N1CCN(c2cccc(C(F)(F)F)n2)CC1 (stereo not drawn)	.	.	-1	?	-0.3%	-2
C=CCNc1ncnc2c1ncn2C1OC(CO)C(O)C1O (stereo not drawn)	-2	0.7	11	1.3	2.3%	7
COc1ccc(S(=O)(=O)NC(C)C(=O)Nc2cccc([N+](=O)[O-])c2)cc1 (stereo not drawn)	14	2.1	4	2.4	-1.9%	-9
CN(C)C(/C=C/Nc1cccc([N+](=O)[O-])c1)=C(C#N)C#N	7	3.6	-1	1.0	-1.2%	-2
CCS(=O)(=O)c1ncc(Cl)c(C(=O)Nc2ccccc2OC)n1	2	-0.2	-4	-0.5	-0.5%	6
Cc1nc(NC(=O)C2CC3CCCC(C2)C3=O)sc1C (stereo not drawn)	-3	-2.2	-3	-0.7	-0.6%	-3
O=C(Nc1cccc(F)c1)Nc1ccnn1C1CCN(C(=O)c2cscn2)CC1	4	0.0	3	-0.1	0.9%	-8
Cc1ccc(SCc2ccc(C(=O)N3CCCC3)cc2)cc1	-3	0.4	-1	0.3	2.0%	10
